Mtb growth: Mycobacterium tuberculosis H37Rv growth inhibition, cell based, confirmatory dose response (AID 1949); most inactive calls were filed without a number and no value below 0 was filed; inhibition, % at 10 µg/mL; hits with a dose series show IC50 in µg/mL; actives 1.6% (n = 100,000);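 active means confirmed in a dose series; inconclusive means about 50% or more but not retested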;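 further: bacteria grown 7 days with compound before Alamar blue readout; 0% = untreated bacteria and 100% = reference antibiotic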
* = called active by the depositor; i = inactive; ? = inconclusive. An excerpt; count on the stated rates, not on these rows.

No.	structure	Mtb growth
1	COC(=O)CC1C(=O)NCCN1C(=S)Nc1cccc(C(F)(F)F)c1 (stereo unspecified)	i
2	Cc1onc(-c2ccccc2Cl)c1C(=O)NC(=S)Nc1ccccc1C(F)(F)F	i
3	Cc1cc(NC(=O)CCCN2C(=O)c3cccc4cccc(c34)C2=O)no1	i
4	CC(CCc1ccccc1)NC(=O)c1ccc(NC(=O)c2ccccc2)cc1 (stereo unspecified)	i
5	COc1cc(C(=O)Nc2cc(-c3nc4cc(Cl)cc(Cl)c4o3)ccc2C)cc(OC)c1OC	i
6	Cc1ccc(S(=O)(=O)NC(=O)NCc2ccc(F)cc2)cc1	i
7	CN1CCN(c2ccc([N+](=O)[O-])c(NCC3CCCO3)c2)CC1 (stereo unspecified)	i
8	CSc1cccc(NC(=O)CCc2ccc(S(=O)(=O)NCC(C)C)cc2)c1	i
9	CC(=O)c1ccc(N2CCN(C(=O)c3c(F)c(F)c(F)c(F)c3F)CC2)cc1	4%
10	Cc1cc(Cl)c(S(=O)(=O)NCc2cccs2)cc1OCC(N)=O	1%
11	CC(C)NC(=O)C(=O)Nc1ccc(F)cc1	i
12	Cc1ccc(SCCNC(=S)Nc2cc(C)ccc2C)cc1	?
13	Cc1cccc(CNC(=O)C(=O)NCCc2ccccc2)c1	3%
14	COc1ccc(NC(=O)C2CCN(C(=O)c3ccc(C(C)(C)C)cc3)CC2)cc1OC	i
15	O=C(NCc1nc(-c2ccccc2)no1)c1ccc(Br)o1	i
16	CC(c1ccccc1)C1CC(=O)N(c2cccc(C(F)(F)F)c2)C1=O (stereo unspecified)	i
17	CC(C)CNC(=O)c1ccc(N(C)S(C)(=O)=O)cc1	i
18	COc1ccc(-c2cc(=O)oc3cc(OCC(=O)c4cc(OC)c(OC)c(OC)c4)ccc23)cc1	i
19	CCCOc1ccc2c(C)c(CC)c(=O)oc2c1	11%
20	O=C(CN1CCN(c2ccccc2F)CC1)c1ccc(Cl)cc1	i
21	CCCCNS(=O)(=O)c1ccc(NS(=O)(=O)c2ccc(Br)cc2)cc1	i
22	COc1ccc(-c2cc(C(F)(F)F)nc(N3CCCC3)n2)cc1OC	i
23	COc1cccc(NC(=O)CN(C)S(=O)(=O)c2cc(Cl)ccc2Cl)c1	i
24	Cc1cc(C(C)(C)C)cc(S(=O)(=O)O)c1C	1%
25	Cc1ccc(C(C)C)cc1S(=O)(=O)N1CCN(c2ccccc2F)CC1	i

No.	structure	Mtb growth
26	Cc1ccccc1-n1c(N)cc(=O)[nH]c1=S	i
27	Fc1ccccc1N1CCN(C(=S)c2ccc(Cl)cc2)CC1	i
28	CCOC(=O)COc1ccc(Br)cc1	i
29	O=C(O)CCc1ccc(-c2ccc(Br)cc2)n1-c1ccccc1O	i
30	COc1ccccc1-n1cc2c(c1-c1ccccc1)c(=O)n(C)c(=O)n2C	5%
31	O=C1c2ccccc2C(=O)N1Cc1ccccc1Cl	i
32	CSc1nc(N)nc2sc(C(=O)C34CC5CC(CC(C5)C3)C4)c(N)c12	13%
33	COc1ccc(C(=O)NC(=S)Nc2ccccc2C(=O)O)cc1	i
34	CC1CCCCN1C(=O)N1CCOCC1 (stereo unspecified)	i
35	CCc1ccc(NC(=O)C(=O)NCCN(C)C)cc1	i
36	S=C(C1=Cc2ccccc2OC1)N1CCOCC1	1%
37	CC(C)c1ccc(OCC(=O)N2CCOCC2)c(Br)c1	i
38	Cc1ccc(C(=O)Nc2cccc([N+](=O)[O-])c2)cc1S(=O)(=O)Nc1ccc(NC(=O)c2ccccc2)cc1	?
39	Fc1ccccc1NC(=S)Nc1ccc(Br)cc1	i
40	COC(=O)c1c(NC(=O)C(c2ccccc2)c2ccccc2)sc2c1CCC2	i
41	CCCCOc1ccc(C(=O)NC(=S)Nc2ccc(C)c(Cl)c2)cc1	i
42	COc1cccc(OCC(O)CN2CC(C)OC(C)C2)c1 (stereo unspecified)	i
43	O=C(OCc1ccc(Br)cc1)c1cccc(-c2nnc(-c3ccccc3)o2)c1	2%
44	Cc1ccc(CNn2cn[nH]c2=S)cc1	i
45	COc1cccc(OCC(=O)Nc2ccc(Cl)cc2C(=O)O)c1	0%
46	Cc1cccc(NC(=O)C(=O)NCC2CCCO2)c1 (stereo unspecified)	i
47	O=C(CSc1ccc(Cl)cc1)Nc1cccc(NC(=O)c2ccco2)c1	5%
48	O=C(CSCC(=O)Nc1ccccc1C(F)(F)F)Nc1ccccc1	i
49	CC(C)c1ccc(NC(=S)NCc2cccs2)cc1	?
50	O=C(O)c1nc(-c2ccc([N+](=O)[O-])cc2)nc2ccccc12	i

A stretch of the results above:
No.	structure	Mtb growth
25	Cc1ccc(C(C)C)cc1S(=O)(=O)N1CCN(c2ccccc2F)CC1	i
26	Cc1ccccc1-n1c(N)cc(=O)[nH]c1=S	i
27	Fc1ccccc1N1CCN(C(=S)c2ccc(Cl)cc2)CC1	i
28	CCOC(=O)COc1ccc(Br)cc1	i
29	O=C(O)CCc1ccc(-c2ccc(Br)cc2)n1-c1ccccc1O	i

Additional compounds:
No.	structure	Mtb growth
51	CCOC(=O)Cc1csc(NC(=O)Nc2ccc(Cl)c(Cl)c2)n1	i
52	CC(C)N(C(=O)Cn1c(CCCO)nc2ccccc21)c1ccccc1	i
53	CCn1ncc(Cl)c1C(=O)Nc1cccc2ccccc12	10%
54	S=C1NC2=C(CCc3ccccc32)C(c2ccc(Br)cc2)N1 (stereo unspecified)	3%
55	C=CCn1c(SCC(=O)NC2CCCCC2)nnc1C(C)NC(=O)c1cccs1 (stereo unspecified)	i
56	O=C(Cc1ccccc1)Nc1ccc2c(c1)C(=O)NC2=O	i
57	CCOc1ccc(N2C(=O)CC(NC3CCCCNC3=O)C2=O)cc1 (stereo unspecified)	i
58	O=[N+]([O-])c1ccc(-c2noc(CCC3CCCC3)n2)cc1	4%
59	Cn1nnnc1SCC(=O)Nc1nc2ccccc2s1	i
60	COc1ccc(OC(=O)C(C)Oc2cccc(C)c2C)cc1 (stereo unspecified)	17%
61	O=C(NCc1cccs1)c1cnn2c(C(F)F)cc(C3CC3)nc12	i
62	O=C(CSc1nc2ccc(Br)cc2c(=O)n1-c1ccccc1)NC1CCCC1	i
63	Cc1cc(=O)oc2cc(OCC(=O)Nc3ccccc3[N+](=O)[O-])ccc12	i
64	COc1ccc(Br)cc1CN1CCC(N2CCCC2)CC1	1%
65	Cc1cc(NC(=O)C(=O)NCCN2CCN(C(=O)c3ccccc3F)CC2)ccc1Br	9%
66	CCCCOc1cc2oc(=O)cc(C)c2cc1Cl	i
67	Cc1cc(C)c(S(=O)(=O)Nc2ccc(S(=O)(=O)Nc3ccc(Cl)cc3Cl)cc2)c(C)c1	0%
68	CCCN(CCC)C(=O)C(c1ccccc1)c1ccccc1	6%
69	COc1ccc(C)cc1NC(=O)c1ccc(Cl)c(S(=O)(=O)N2CCOCC2)c1	i
70	CC(C)c1ccc(N(CC(=O)N2CCCCC2)S(C)(=O)=O)cc1	i
71	COC(=O)c1c(NC(=O)CCCC(=O)O)sc(C)c1C	i
72	COc1ccc(C(=O)Nc2ccc3[nH]c(=O)[nH]c3c2)cc1Br	i
73	CC(Sc1nnc(Cc2cccc3ccccc23)o1)C(=O)NC(c1ccccc1)c1ccccc1 (stereo unspecified)	i
74	COc1ccc(N2C(=O)CC(N3CCN(C4CCc5ccccc5C4)CC3)C2=O)cc1 (stereo unspecified)	i
75	O=C(NC1C2CC3CC(C2)CC1C3)c1ccc(N2CCN(C(=O)c3ccc(Cl)cc3)CC2)c([N+](=O)[O-])c1 (stereo unspecified)	i

No.	structure	Mtb growth
76	C=CCn1c(SCC(=O)NC2CCCCC2)nnc1-c1ccc(Cl)cc1	i
77	CCOC(=O)C1=CN(Cc2ccc(OC)cc2)C=C(C(=O)OCC)C1c1cccc(OC)c1OC	i
78	O=C(CCSc1ccccc1)Nc1ncccn1	i
79	Cc1cc(=O)oc2c1c(C)nn2-c1cc(Cl)cc(Cl)c1	4%
80	C=CCn1c(=O)c2c3c(sc2n2c(Nc4ccccc4)nnc12)CCC3	i
81	O=C(NCc1ccco1)c1ccc(-c2ccc([N+](=O)[O-])cc2)o1	2%
82	COc1ccc(-c2oc3ncn4nc(-c5ccncc5)nc4c3c2-c2ccc(OC)cc2)cc1	i
83	O=C(O)CSc1nc2ccccc2n1CC(=O)O	i
84	C=CCNCC(=O)NC1C2CC3CC(C2)CC1C3 (stereo unspecified)	i
85	COC(=O)COc1ccc(S(=O)(=O)NCc2ccco2)cc1Cl	i
86	O=C(CNc1ccccc1)c1ccc(Cl)cc1	4%
87	CCCC(=O)Nc1ccc(Cl)c(NC(=O)c2ccc(OC)c(Cl)c2)c1	0%
88	COc1ccc(NCCCC(=O)N/N=C/c2cccc([N+](=O)[O-])c2)cc1	1%
89	O=C(COc1cccc(C(F)(F)F)c1)Nc1ncc(Cc2cccc(C(F)(F)F)c2)s1	i
90	C=CCn1c(SCC(=O)NCCN2CCOCC2)nc2sc3c(c2c1=O)CCC3	i
91	Cc1nnc(SCC(=O)NCCOc2ccc(Cl)cc2)n1-c1ccccc1	i
92	COc1ccc(-c2cn(S(=O)(=O)c3ccc(Cl)cc3)nc2N)cc1	i
93	COc1ccc(C(=O)/C=C/C2=C(c3ccccc3)Oc3ccccc3C2c2ccccc2C)cc1OC (stereo unspecified)	3%
94	Fc1ccc(C2=NN(c3ccccc3)C(c3ccccc3F)C2)cc1 (stereo unspecified)	13%
95	Cc1ccc(NC(=S)Nc2ccccc2-c2ccccc2)cc1	i
96	Cc1ccc(S(=O)(=O)Nc2ccc(Cl)cn2)c(C)c1C	i
97	Cc1ccc(S(=O)(=O)c2c(-c3ccccc3)c3cc(Cl)ccc3[nH]c2=O)cc1	i
98	CCOc1ccc(OCCOCCNC(C)C)cc1	i
99	CCOc1cccc2cc(-c3nnc(Nc4ccccc4OC)s3)c(=O)oc12	i
100	COc1ccc(C(=O)Nc2ccccc2)cc1S(=O)(=O)N1CCN(c2ccccc2)CC1	2%

Structures shown so far that contain a furan ring, fused or not (five):
No.	structure	Mtb growth
15	O=C(NCc1nc(-c2ccccc2)no1)c1ccc(Br)o1	i
47	O=C(CSc1ccc(Cl)cc1)Nc1cccc(NC(=O)c2ccco2)c1	5%
81	O=C(NCc1ccco1)c1ccc(-c2ccc([N+](=O)[O-])cc2)o1	2%
82	COc1ccc(-c2oc3ncn4nc(-c5ccncc5)nc4c3c2-c2ccc(OC)cc2)cc1	i
85	COC(=O)COc1ccc(S(=O)(=O)NCc2ccco2)cc1Cl	i

Next part
No.	structure	Mtb growth
101	Cc1ccc(N(C)C(=O)n2nc(C)c(Br)c2C)cc1	i
102	OC1/C(=C\c2ccccc2Cl)N2CCC1CC2 (stereo unspecified)	i
103	CN(CC(=O)Nc1ccc(C(F)(F)F)cc1)S(=O)(=O)c1ccc(F)cc1	i
104	O=C(CSc1ncnc2sc3c(c12)CCCC3)Nc1ccc2c(c1)OCO2	i
105	CCOC(=O)c1c(-c2ccc(Br)cc2)csc1NC(=O)c1ccccc1F	i
106	COc1ccc2nc(N/C(N)=N/C(=S)Nc3ccc(Cl)cc3)nc(C)c2c1	0%
107	CCOC(=O)c1sc(NC(=O)CSc2nnc3c(n2)[nH]c2ccccc23)nc1C	4%
108	O=C(NC(=S)Nc1cc(C(F)(F)F)ccc1N1CCCCC1)c1cccs1	i
109	Cc1ccccc1C(=O)NCc1n[nH]c(=S)n1C	i
110	NC(=O)c1c(NC(=O)c2c(F)cccc2F)sc2c1CCCCCC2	i
111	COc1ccc(OCCCC(=O)Nc2ccc(OC)cc2OC)cc1	i
112	O=C(NC(=S)Nc1ccc(N2CCN(C(=O)c3ccccc3)CC2)c(Cl)c1)c1cccnc1	48%
113	CC(=O)N(C(C)=O)c1ccccc1-c1ccccc1	i
114	COc1cc(OC)c(NC(=O)CN(C)S(=O)(=O)c2cc(Cl)ccc2Cl)cc1Cl	i
115	CC(C)CNc1oc(COc2ccccc2F)nc1C#N	0%
116	COc1ccc(C2c3cc(OC)c(OC)cc3CC(=O)N2c2ccc(OC)cc2)cc1 (stereo unspecified)	0%
117	CCOC(=O)C1CCN(C(=O)COc2cc(C)c(Br)c(C)c2)CC1	28%
118	Cc1ccc(O)c(Nc2ncnc3ccccc23)c1	i
119	CCOc1ccccc1C(=O)Nc1ccccc1C(=O)O	i
120	CC(=O)c1cccc(NC(=O)CN(c2cccc(Cl)c2)S(=O)(=O)c2ccccc2)c1	i
121	O=C(c1ccc2c(c1)OCCO2)C1CCCCC1	i
122	CCOC(=O)c1c(NC(=S)N2CCN(S(C)(=O)=O)CC2)sc(C)c1-c1ccccc1	i
123	COc1cc(OC)c(C(=O)N2CCN(c3ccccc3F)CC2)cc1OC	i
124	COc1cc2c(cc1OC)CN(S(=O)(=O)c1ccccc1F)CC2	i
125	Cc1ccc(S(=O)(=O)N(C)c2ccc(C(=O)Nc3ccc4c(c3)OCO4)cc2)cc1	0%

No.	structure	Mtb growth
126	COc1c(S(=O)(=O)N2CCN(c3c(C)cc(C)cc3C)CC2)ccc(Cl)c1Cl	i
127	CCOc1cc(CO)cc(Br)c1OCc1ccc(Cl)cc1Cl	15%
128	COc1ccccc1OCC(=O)Nc1oc(-c2ccccc2)c(-c2ccccc2)c1C#N	8%
129	CCOC(=O)C1=C(C)NC2=C(C(=O)c3ccccc32)C1c1cccnc1 (stereo unspecified)	i
130	Nc1nc(SCC(=O)N2CCN(c3ccccc3)CC2)n[nH]1	i
131	CC(=O)c1ccccc1OCC(O)CN1CCCCCC1 (stereo unspecified)	i
132	Cc1ccc(NS(=O)(=O)c2ccc(NS(=O)(=O)c3ccc4c(c3)OCCO4)cc2)cc1Cl	i
133	Cc1ccccc1C(=O)Oc1ccc2c(=O)c(-c3nc4ccccc4s3)c(C)oc2c1C	i
134	Cc1cc(OCC(=O)Nc2ccc(S(=O)(=O)NCCc3ccccc3)cc2)ccc1Cl	2%
135	COC(=O)c1ccc(COC(=O)c2ccc(Cl)cc2)cc1	i
136	Cc1cc(F)c(F)cc1C(=O)NC1CC1	i
137	COCc1nnc(NC(=O)c2ccccc2Oc2ccccc2)s1	i
138	O=C(Nc1cccc(C(=O)N2CCCC2)c1)c1ccccc1	i
